# RE007 growth inh – qHTS Assay for Inhibitors of the HIV-1 protein Vpr | S. pombe RE007 Vpr strain, BacTiter-Glo ATP luminescence, 24 h; control for the full effect not named in the record | Potency, µM (top dose mostly 92.2 µM), inactives show at the highest dose activity change, negative = less growth | 360,000 compounds, 0.21% hits; active = well fitted falling curve with a large enough effect; inconclusive = small, poorly fitted or top-dose-only effect; inactive = no such curve, though single readings can be large or run the other way;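 note: % is set by controls: 0 for no effect and ±100 for the full control effect; nearly all actives have a fitted effect of over 50% in size; the assay follows cell death caused by Vpr and the record does not say whether a fall means rescue or toxicity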
#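 Fission yeast RE007 carrying one integrated HIV-1 vpr copy, seeded at OD 0.01 in PMG+AL medium with 23 nL pinned compound. Grown 24 h at 30 degrees; viability read by BacTiter-Glo luminescence after 5 min.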
# SARS PLP yeast – qHTS of Yeast-based Assay for SARS-CoV PLP; 330,000 compounds, 0.19% hits; Potency, µM (top dose mostly 32.9 µM), without a hit: at the highest dose activity, positive = growth rescue; S. cerevisiae expressing SARS-CoV PLpro, growth rescue; control for the full effect not named in the record; AID 485353, 2010; active means well fitted rising curve with a large enough effect; inconclusive means small, poorly fitted or top-dose-only effect; inactive means no such curve, though single readings can be large or run the other way; note: 0% is about no effect; nearly all actives have a fitted effect of over 55% in size; growth read by luminescence after 48 h
# 2A StopGo – High Throughput Screening for Foot and Mouth Disease Virus Antivirals; Potency, µM (series often up to 57.9 µM), without a hit: top-dose signal change, negative = less light; human cells with a luciferase reporter of 2A StopGo recoding; control for the full effect not named in the record; AID 1159524, 2015; 410,000 compounds, 1.2% hits; active = well fitted falling curve with a large enough effect; inconclusive = small, poorly fitted or top-dose-only effect; inactive = no such curve, though single readings can be large or run the other way; tested in HEK293T cells; note: % is set by controls: 0 for no effect and ±100 for the full control effect; nearly all actives have a fitted effect of over 45% in size; luciferase light after 4 h
# * marks the source's active call; other numbers are inactive results; ? = inconclusive; [ ] = remark or other dose. Potency is the fitted concentration of half-maximal effect. These rows are one share of the data; count on the stated rates, not on these rows.
# Screens in order – RE007 growth inh	SARS PLP yeast	2A StopGo
- CCN1C(=O)/C(=C\c2ccc(-c3ccc([N+](=O)[O-])cc3OC)o2)SC1=Nc1cccc(C(=O)O)c1
→ -12%	-1%	-9%
- COc1ccc(NC(=O)Nc2ccc3c(c2)C(=O)N([C@H](C)CO)C[C@H](C)[C@@H](CN(C)C(=O)Nc2ccc4c(c2)OCO4)O3)cc1
→ 0%	-9%	22%
- CN(C)C1=NCCN1CC1CCCC1
→ 8%	-1%	-1%
- COc1cc(NC(=O)c2cc(-c3ccccc3)nc3c2cnn3C(C)C)cc(OC)c1OC
→ 4%	8%	?
- O=C(Nc1nccs1)c1nc[nH]c1C(=O)N1CCc2ccccc2C1
→ 2%	-2%	-8%
- CCN(C(=O)CSc1nnc(C(C)N(C)C)n1-c1ccc(F)cc1)C1CCS(=O)(=O)C1 (stereo not drawn)
→ -12%	-10%	-8%
- O=C(NOCc1ccccc1)c1ccc(Cl)cc1Cl
→ 14%	0%	-17%
- CC(C)C(NC(=O)c1ccc(F)cc1)C(=O)N1CCN(c2ccccn2)CC1 (stereo not drawn)
→ -7%	2%	-17%
- CC(=O)Nc1ccc(NC(=O)C2CCN(S(=O)(=O)c3ccc4c(c3)OCCO4)CC2)cc1
→ -20%	-1%	-13%
- CN(CC(=O)Nc1ccccc1Br)C(=O)c1ccc2c(=O)n3c(nc2c1)CCC3
→ 4%	8%	-3%
- Cc1onc(C(=O)N2CCOCC2)c1[N+](=O)[O-]
→ 3%	4%	1%
- COCCn1c(N)c(N(Cc2ccccc2)C(=O)COc2ccccc2F)c(=O)[nH]c1=O
→ 0%	0%	-2%
- COc1ccc(CN(C)C(=O)Cn2cnc3c(NCc4ccccc4)ncnc32)cc1OC
→ 6%	27%	?
- CC(=O)N1CCC(=NNc2nc3ccccc3s2)CC1
→ 7%	-10%	48%[activator]
- C[C@H](CO)N1C[C@H](C)[C@@H](CN(C)S(=O)(=O)c2ccccc2)Oc2c(NC(=O)c3ccncc3)cccc2C1=O
→ -6%	-12%	0%
- COC(=O)c1ccc(C2=NOC(C)(c3nnc(Cc4ccccc4)o3)C2)cc1 (stereo not drawn)
→ -6%	0%	4%
- CC(C)(C)CNC(=O)c1ccc2c(c1)S(=O)(=O)c1cc(Cl)ccc1C2=O
→ 11%	2%	-3%
- O=C(O)c1cccc([N+](=O)[O-])c1C(=O)Nc1nc2ccccc2s1
→ 9%	1%	3%
- O=C(/C=C/NNC(=O)c1ccc(Cl)cc1)c1ccccc1
→ 12%	1%	18%
- CCn1nc(C(=O)N2CCN(Cc3nc4ccccc4s3)CC2)c2ccccc2c1=O
→ -14%	-1%	-34%
- Cc1ccc(S(=O)(=O)N(C)C)cc1NC(=O)COC(=O)c1ccc2c(c1)OCCO2
→ 18%	-5%	-26%
- Cc1c(Cl)c([N+](=O)[O-])nn1CCCC(=O)NC1CCCCC1
→ 2%	1%	10%
- Cc1ccc(S(=O)(=O)N2[C@@H](c3ccc(F)cc3)C(C(=O)O)=CC[C@H]2c2cccc(C)c2)cc1
→ 5%	6%	5%
- CN(C#N)c1nccc(-c2cccs2)n1
→ 16%	0%	16%
- COc1ccc(SC[C@H](Cc2ccccc2)N2CC[C@@H](C)CCC2=O)cc1
→ 17%	3%	13%
- COc1ccc(NC(=O)COC(=O)c2ccc(-n3cnnn3)cc2)c([N+](=O)[O-])c1
→ -10%	-12%	-5%
- O=C(COc1ccc(Br)cc1Br)NC1CCCC1
→ 9%	-7%	9%
- COC(=O)C1=C(c2ccc(F)cc2F)C[C@@H]2CC[C@H]1N2C(=O)NCCCOC(C)C
→ 1%	6%	-10%
- CCNC(=O)N(CC)C[C@H]1N[C@@](CC)(C(=O)OC)[C@H]2C(=O)N(Cc3ccccc3)C(=O)[C@@H]12
→ 1%	-1%	-1%
- O=C(COc1ccc([N+](=O)[O-])cc1Cl)NCCN1C(=O)CSC1=O
→ -6%	-9%	-4%

# Next part:
# Screens in order – RE007 growth inh	SARS PLP yeast	2A StopGo
- O=C(COc1ccccc1Br)NCCC1=CCCCC1
→ 7%	-2%	6%
- COc1ccc(NC(=O)c2cc(-c3ccccc3)nc3c2cnn3C(C)C)cc1
→ 4%	-3%	40µM*
- COc1ccc(CN2C(=O)C(CC(C)C)Nc3ncnc(N4CCCCC4)c32)cc1 (stereo not drawn)
→ -7%	-2%	-8%
- CCCNC(=O)N1[C@H]2CC[C@@H]1C(C(=O)OC)=C(c1cccc(C#N)c1)C2
→ 10%	-6%	-2%
- COc1ccc(NC(=O)N(C)C[C@H]2Oc3c(NC(=O)NC(C)C)cccc3C(=O)N([C@H](C)CO)C[C@@H]2C)cc1
→ 9%	9%	-1%
- C=CC[C@@H](CC(=O)NCCO)C(=O)N[C@@H](COC(=O)[C@@H](CC=C)CC(=O)OC(C)(C)C)Cc1ccccc1
→ 3%	0%	-12%
- Cc1nc(-c2ccccc2)cn(O)c1=O
→ 0%	11%	-9%
- CC(=O)c1ccc(-c2ccc(C(=O)N(C)Cc3nc4ccccc4c(=O)[nH]3)o2)cc1
→ -3%	1%	22µM*
- COc1ccc(C2=CC(=O)C[C@H](c3ccc(F)cc3)C2)c(OC)c1
→ 7%	2%	4%
- COc1ccc(CNC(=O)COC(=O)C(CCSC)NC(=O)c2ccco2)cc1OC (stereo not drawn)
→ -11%	-1%	-20%
- O=C(CN(c1ccccc1)S(=O)(=O)c1ccc(F)cc1)NCc1cccs1
→ 1%	-3%	12%
- Cc1ccccc1C(=O)N1CCC(C(=O)N2CCN(c3ncccn3)CC2)CC1
→ 9%	-7%	-10%
- NC(=O)NC(=O)CSc1nnc(-c2ccc(Cl)cc2)n1CC1CCCO1 (stereo not drawn)
→ -3%	1%	11%
- O=C(Nc1ccc(C(F)(F)F)cc1)C1=NN(C2CCS(=O)(=O)C2)C(=O)CC1 (stereo not drawn)
→ 6%	3%[6.58 µM]	-6%
- O=C(Nc1ccccc1Br)c1c(F)cccc1Cl
→ -11%	0%	4%
- CN(Cc1cnn(Cc2ccccc2)c1)C(=O)CN=C1NS(=O)(=O)c2ccccc21
→ -10%	-5%	48%[activator]
- Cc1c(NC(=O)C(C)Oc2cccc(F)c2)c(=O)n(-c2ccccc2)n1C (stereo not drawn)
→ -16%	-2%	-23%
- CCc1ccc(NC(=O)C(C)Sc2ccc(S(=O)(=O)N3CCN(C)CC3)cn2)cc1 (stereo not drawn)
→ -5%	12%	-15%
- CC(=O)Nc1ccc(NC(=O)CCN2C(=O)C3CC=CCC3C2=O)cc1 (stereo not drawn)
→ -3%	-2%	-10%
- c1ccc2cc(CCO[C@H]3CCCCO3)ncc2c1
→ -1%	-1%	-23%
- O=c1c(Cc2ccc(F)cc2)c(O)ccn1CCc1cnc[nH]1
→ -6%	1%	-2%
- COCCCNC(=O)C[C@H]1C[C@H](C(=O)N2CCOCC2)[C@@]2(CCC3CCCC3)c3[nH]c4ccc(Cl)cc4c3CCN2C1=O
→ 4%	-1%	?
- COCc1c(C(=O)N2CCN(S(=O)(=O)c3ccccc3Cl)CC2)oc2ccccc12
→ 0%	11%	-21%
- CC1CN(C(=O)CSc2nnc(-c3cccs3)n2N)CC(C)O1 (stereo not drawn)
→ 25%	-1%	-2%
- O=C(NCc1ccccc1F)C1CCN(C(=O)c2sccc2-n2cccc2)CC1
→ 3%	2%	-23%
- Cc1ccccc1-c1nnc(SC(C)C(=O)NC2CCCC2)o1 (stereo not drawn)
→ 3%	-3%	-5%
- COc1cc(OC)cc(-c2c(-c3cccs3)c3cc(-c4ccc(OC)c(OC)c4)ccc3n2C)c1
→ -9%	-9%	-6%
- CCCCC(=O)N/N=C(/C)C1=C(C)C(C)(C)OC1=O
→ -15%	5%	-4%
- Cc1ccc(NC(=O)C2=CC=CN3CCS(=O)(=O)N=C23)cc1
→ 1%	5%	13%
- CCN1C(=O)[C@H]2[C@@H](c3ccc(C)cc3)N3C(=O)N(c4cccc(Br)c4)C(=O)[C@@]3(CC(C)C)[C@H]2C1=O
→ 1%	-1%	-24%

# In the list so far, these contain a tert-butyl group.
# Screens in order – RE007 growth inh	SARS PLP yeast	2A StopGo
- CC(C)(C)CNC(=O)c1ccc2c(c1)S(=O)(=O)c1cc(Cl)ccc1C2=O
→ 11%	2%	-3%
- C=CC[C@@H](CC(=O)NCCO)C(=O)N[C@@H](COC(=O)[C@@H](CC=C)CC(=O)OC(C)(C)C)Cc1ccccc1
→ 3%	0%	-12%

# Next section
# Screens in order – RE007 growth inh	SARS PLP yeast	2A StopGo
- Cc1ccccc1OCCOC(=O)c1ccc(S(=O)(=O)N2CCCC2)cc1
→ 7%	-1%	-17%
- CCCN(Cc1ccc(C)cc1)C(=O)c1ccc(CNS(=O)(=O)c2ccc(C(C)=O)cc2)cc1
→ 5%	10%	21%
- CCc1noc(C)c1C(=O)NNC(=O)COc1ccccc1C
→ 3%	-5%	-16%
- C[C@@H]1CN([C@H](C)CO)C(=O)c2cc(NC(=O)NC3CCCCC3)ccc2O[C@H]1CN(C)S(C)(=O)=O
→ 5%	-46%	-8%
- COc1ccc(C)cc1NC(=O)CC(NC(C)=O)c1ccccc1 (stereo not drawn)
→ 8%	-3%	-5%
- O=C(c1cc2cc([N+](=O)[O-])ccc2s1)N1CCCCC1
→ -2%	0%	43%[activator]
- CN(C)NC(=O)C(NC(=O)c1ccccc1)C12CC3CC(CC(C3)C1)C2 (stereo not drawn)
→ 8%	0%	-17%
- O=C1C(c2c(O)[nH]c3ccccc23)=Nc2ccccc21
→ -6%[18.4 µM]	-6%	6%
- O=C(O)c1cccc2c1C(=O)c1ccc(-c3ccc(F)cc3F)cc1S2(=O)=O
→ 16%	-1%	0%
- Nc1c(Cl)cc(C2=NCCn3c2c2ccc(C(F)(F)F)cc2[n+]3[O-])cc1Cl
→ -7%	3%	-17%
- CC(C)=Cc1oc2ccc([N+](=O)[O-])cc2c1N1CC(C)OC(C)C1 (stereo not drawn)
→ 3%	-3%	-20%
- COc1ccc(C(CNC(=O)C2COc3ccccc3O2)N2CCCC2)cc1 (stereo not drawn)
→ 2%	1%	-6%
- N#Cc1c(NC(=O)COC(=O)c2ccc(O)cc2O)sc2c1CCC2
→ 4%	-7%	-18%
- CCCN(CC(=O)Nc1ccccc1OC)C(=O)CC1CCCC1
→ 0%	0%	-11%
- O=C(O)c1ccc(-n2cccc2/C=C2/NC(=O)N(c3cccc(Cl)c3)C2=O)cc1
→ -14%	5%	1%
- O=C(COC(=O)c1ccc(Cl)nc1)NC1CCCCCC1
→ -2%	-3%	-15%
- COc1cc(-c2nc3ccc(C)cn3c2NCc2ccccc2)ccc1SC1CCCCC1
→ -24%	-9%	?
- C[C@@H](NC(=O)c1[nH]cnc1C(=O)Nc1cccc(Cl)c1)c1ccccc1
→ 1%	0%	0%
- CCN(C[C@H]1N[C@@](Cc2ccccc2)(C(=O)OC)[C@H]2C(=O)N(C)C(=O)[C@@H]12)S(=O)(=O)c1ccc(C(F)(F)F)cc1
→ -4%	-1%	-24%
- COc1ccc(C(=O)NCC(=O)OCC(=O)Nc2ncc(Cl)cc2Cl)cc1[N+](=O)[O-]
→ 14%	-1%	-16%
- COc1ccc(OC)c(/C=N/OC(=O)Nc2ccc(Cl)cc2)c1
→ -11%	-11%	7%
- CC1(C)C[C@H]2C3=CCC4[C@@]5(C)CC[C@H](O)[C@](C)(CO)C5CC[C@@]4(C)[C@]3(C)CC[C@@]2(C)[C@H](O)[C@@H]1O (stereo partly drawn)
→ -1%	2%	-24%
- Cc1cc(C(=O)Nc2c(C)nn(Cc3ccc(Cl)cc3)c2C)no1
→ 3%	3%	-18%
- O=C(NCC(=O)N1CCCCC1)c1sc2ccccc2c1Cl
→ -12%	-10%	46%[activator]
- CCN1CCN(C(=O)/C(C#N)=C/c2ccc(OC(F)F)cc2)CC1
→ -15%	-2%	-10%
- O=C(CCNC(=O)Cn1ccc2ccccc2c1=O)NCCC1=CCCCC1
→ 0%	0%	4%
- CC1CCCCC1NS(=O)(=O)c1ccc2c(c1)CCC(=O)N2 (stereo not drawn)
→ 25%	0%	-1%
- COc1cc(OC)cc(C(=O)NC(C(=O)NCCc2ccccn2)C(C)C)c1 (stereo not drawn)
→ 2%	1%	4%
- C#CCCC/C(=C\C(=O)N(C)[C@H](C(=O)N(C)[C@H](C(=O)N(C)[C@H](C(=O)N(C)[C@H](C(N)=O)C(C)C)C(C)C)C(C)C)C(C)C)OC
→ -1%	-2%	-17%
- CCOC(=O)Cn1c(C)[n+](C)c2cc(Cl)c(Cl)cc21
→ 2%	-2%	6%
- COCCn1c(Cc2ccccc2)nnc1SC(C)C(=O)NC1CC1 (stereo not drawn)
→ -4%	-4%	-16%
- O=C1c2c(O)cc(O)cc2O[C@H](c2ccc(O)c(O)c2)[C@H]1O
→ 5%[18.4 µM]	0%	-12%
- COc1ccc(-c2c(C#N)c(N)nc3c2CCC3)cc1
→ -10%	-1%	-9%

# Compound activity (PubChem BioAssay)
